2A firefly: FMDV 2A StopGo reporter, firefly signal; HEK cells with a luciferase reporter of 2A StopGo recoding; 120,000 compounds, 0.23% hits; AID 1745856; Potency, µM (highest dose often 57.5 µM), for the others: at the top dose signal change, negative = less light; active = well fitted falling curve with a large enough effect; inconclusive = small, poorly fitted or top-dose-only effect; inactive = no such curve, though single readings can be large or run the other way; further: nearly all actives have a fitted effect of over 60% in size; overnight with compound
StopGo RLuc: lowers the Renilla signal of an FMDV 2A StopGo reporter; 120,000 compounds, 0.32% hits; Potency, µM (top dose mostly 57.5 µM), without a hit: at the highest dose signal change, negative = less light; HEK cells with a luciferase reporter of 2A StopGo recoding; active means well fitted falling curve with a large enough effect; inconclusive means small, poorly fitted or top-dose-only effect; inactive means no such curve, though single readings can be large or run the other way; further: nearly all actives have a fitted effect of over 55% in size; overnight with compound
Numbers without * were called inactive; ? = inconclusive; & = joins results of further samples; [ ] = another dose, or the depositor's remark. On the % scale 0 is the no-effect control and ±100 the full control effect; potency means the concentration at half of the fitted maximal effect.

item	mol	2A firefly	StopGo RLuc
1	N#Cc1ncn(CC(=O)Nc2cc(F)ccc2F)n1	-5%	-12%
2	Cn1cc(C(=O)N2CCN(c3cccc(Cl)c3)CC2)c(=O)c2cc(S(=O)(=O)N3CCCC3)ccc21	7%	6%
3	c1ccc(-c2cn3c4ccccc4n(CCN4CCCCC4)c3n2)cc1	11%	-14%
4	CN(Cc1ccccc1)C(=O)Cn1c(=O)n(C)c2ccccc21	46%[activator]	0%
5	Cc1cc(-c2ccc(S(=O)(=O)Nc3ccccc3C)cc2)on1	?	-6%&29%
6	CCN(C(=O)Cn1c(SCc2ccccc2F)nc2cccnc21)c1ccccc1	48%[activator]	-11%
7	Cc1ccc(CNC(=O)Cn2c(=O)cc(-c3ccccc3)c3c(C)nn(C)c32)cc1	-16%	-13%
8	Cn1c(=O)c2cc(C(=O)NCCCN3CCN(c4ccc(F)cc4)CC3)sc2c2ccccc21	-10%	-5%
9	CC1CCC(NC(=O)c2cc(=O)c3ccccc3o2)CC1 (stereo not given)	93%[activator]	8%
10	Cc1cc2nc(COC(=O)c3cccc(NC(=O)c4cccc(Cl)c4)c3C)cc(=O)n2o1	23%	4%

Taken from above.
entry 10 – StopGo RLuc: 4%
entry 7 – 2A firefly: -16%
entry 8 – 2A firefly: -10%
entry 1 – 2A firefly: -5%

Additional entries
item	mol	2A firefly	StopGo RLuc
11	O=C(CSC1=Nc2ccccc2C2=NC(Cc3ccccc3)C(=O)N12)Nc1cccc(Cl)c1 (stereo not given)	-28%	0%
12	CCN(CC)c1ccc(C=Nc2cc(C)cc(C)c2)cc1	4%	-5%
13	Cc1cccc(CN2CCC(CNC(=O)Nc3cn(CC(C)C)c(=O)c4ccccc34)CC2)c1	-10%	-12%
14	C/C(=N\OC(=O)c1ccc(F)cc1F)c1ccc(F)cc1F	0%	1%
15	O=C(Nc1ccc2nc[nH]c(=O)c2c1)c1ccc(F)cc1Cl	0%	7%
16	CCC12CN3CC(CC)(CN(C1)C3c1ccccn1)C2=O (stereo not given)	-18%&-19%	-23%&-1%
17	O=C(COc1ccc(F)cc1)NCc1ccc2c(c1)CCN2C(=O)c1ccccc1	-15%	-8%
18	CCCCCCCCCCS(=O)(=O)N/N=C/c1ccc2c(c1)OCO2	2%	184%[activator]
19	Cc1nn(C)c2c1c(C(F)(F)F)cc(=O)n2CC(=O)N1CCN(c2ccccc2F)CC1	-5%	-2%
20	CC(=O)Nc1ccc(OCCS(C)(=O)=O)cc1	2%	4%
21	Cc1ccc2[nH]cc(CCNC(=O)c3cccc(Cl)c3)c2c1	-8%	0%
22	CCOc1ccc2nc(N(Cc3cccnc3)C(=O)c3ccc4c(c3)OCCO4)sc2c1	16%	2%
23	CC(C)c1ccc(C2NC(=O)c3n[nH]c(-c4cccs4)c32)cc1 (stereo not given)	-12%	-3%
24	O=C(CCC1NC(=O)c2ccccc2NC1=O)NC1CCCCCCC1 (stereo not given)	7%	1%
25	CCOC(=O)c1cc(-c2ccccc2)n(CCC(=O)Nc2ccc(C(F)(F)F)cc2)c1C	?	22%
26	CCCCNC(=O)C1=CC(c2ccc3c(c2)OCO3)=NS(=O)(=O)N1C	-4%	112%[activator]
27	Cc1ccc(NS(=O)(=O)c2ccc3c(c2)-c2oncc2CO3)cc1C	10%	338%[activator]
28	O=C(Nc1ccccc1NS(=O)(=O)c1cccs1)c1ccc(Cl)cc1[N+](=O)[O-]	20%	14%
29	O/N=C/c1ccccc1Cl	5%	8%
30	CC(NC(=O)c1ccccc1NC(=O)c1nsc2ccccc12)c1ccccc1 (stereo not given)	54%[activator]	-8%
31	COc1ccccc1N=C1SC(C(=O)Nc2ccccc2OC)CC(=O)N1C (stereo not given)	12%	0%
32	Cc1ccc(-c2nnc(Nc3cccc(Cl)c3)c3ccccc23)cc1S(=O)(=O)N1CCCCC1	-12%	90%[activator]
33	CC(C)c1nn2c(=O)cc(COC(=O)c3ccccc3NC(=O)c3cccc(Cl)c3)nc2s1	-8%	-9%
34	COc1ccc(CCNC(=O)CCc2nc(CS(=O)(=O)c3ccc(Cl)cc3)no2)cc1OC	19%	5%
35	C[C@@H](C(=O)N[C@@H](Cc1ccccc1)C(=O)O)n1nnc2ccccc2c1=O	9%	-2%
36	O=C(O)c1cc(/C=C/c2csc(-c3ccccn3)n2)nc2cc(F)ccc12	65%[activator]	0%
37	Cc1cc2nn(-c3ccccc3)nc2cc1NC(=O)c1ccc(Br)o1	140%[activator]	-3%
38	Cc1csc2nc(COc3cccc(NC(=O)c4ccccc4F)c3)cc(=O)n12	31%[activator]	11%
39	Cc1cccc(OCC(=O)N2CCC(NC(=O)c3ccccc3)CC2)c1	5%	0%
40	CCc1ccc(NC(=S)Nc2ccc(C)c(S(=O)(=O)N(CC)CC)c2)cc1	?	-10%[1.06 µM]
41	CCOC(=O)c1[nH]c2c(c1C)/C(=N/O)CCC2	0%	10%
42	Cc1cc(C)cc(-n2ccn(CC(=O)Nc3ccccc3F)c(=O)c2=O)c1	-18%	-19%
43	CCCn1nc(C(=O)NCC)c2ccccc2c1=O	10%	2%
44	COc1ccc(NC(=O)CCc2ncc(-c3ccc(Cl)cc3)o2)cc1	102%[activator]	-4%
45	COC(=O)c1cccc(OCc2ccccc2C#N)c1	1%	-2%
46	Cc1c(C(=O)NC2CCS(=O)(=O)C2)nnn1-c1ccccc1 (stereo not given)	31%[activator]	0%
47	O=C(COC(=O)c1ccc2c(c1)NC(=O)CS2)NCc1cccs1	8%	0%[1.06 µM]
48	CCOc1cccc2c(C)nc(Nc3nc(-c4ccccc4)cc(=O)[nH]3)nc12	12%	1%
49	CC(Sc1nc2ccc(F)cc2c(=O)[nH]1)C(=O)NC1CC1 (stereo not given)	-3%	-8%
50	COc1ccc(-c2nc(CNC(=O)Nc3ccccc3Cl)c(C)o2)cc1	10%	8%
51	Cc1c(C(=O)Nc2ccc(S(=O)(=O)N(C)C3CCN(C)CC3)cc2)oc2c(Cl)cccc12	-17%	-14%
52	CCCNc1c(NC(=O)Nc2ccc(OC)c(OC)c2)c(=O)oc2ccccc12	-6%	-11%
53	CCCSc1oc(-c2cccs2)nc1S(=O)(=O)c1ccc(C)cc1	-9%	216%[activator]
54	O=C(CCc1ncc(-c2ccc(Cl)cc2)o1)NC1CCCC1	1%	-9%
55	Cc1ccc(Cc2nc3ccccc3nc2SCC(=O)NCCc2ccccc2)cc1	16%	1%
56	COc1cccc(C(=O)c2cn(CC(=O)NCCc3ccccc3)c3nc(C)ccc3c2=O)c1	-5%	-4%
57	CCOc1ccc(CCNC(=O)c2ccc3c(c2)N(Cc2ccccc2F)C(=O)c2ccccc2S3=O)cc1OCC (stereo not given)	-6%	6%
58	Cc1ccc(Cn2cccc(C(=O)Nc3cc([N+](=O)[O-])ccc3C)c2=O)cc1	-3%	-5%
59	O=C(NCc1ccccc1F)C1(Cc2nc3ccccc3s2)CCCC1	0%	45%[activator]
60	Cc1ccc(COC(=O)c2nnn(-c3ccccc3)c2C)c(C)c1	26%	17%

Complete entries, quoted from the list. Screens in order: 2A firefly | StopGo RLuc
Cn1cc(C(=O)N2CCN(c3cccc(Cl)c3)CC2)c(=O)c2cc(S(=O)(=O)N3CCCC3)ccc21 reads 7% | 6%
Cc1cc(C)cc(-n2ccn(CC(=O)Nc3ccccc3F)c(=O)c2=O)c1 reads -18% | -19%

Remaining list, next part
item	mol	2A firefly	StopGo RLuc
61	COc1ccccc1CCNC(=O)c1ccc2c(c1)c(C)c(C)n2C	20%	4%
62	COc1ccc(-n2nnnc2C(C)(C)Nc2ccc(C)cc2)cc1	26%	79%[activator]
63	O=C(NCC1CCCO1)c1ccccc1NS(=O)(=O)c1ccc2[nH]c(=O)[nH]c2c1 (stereo not given)	3%	-2%
64	COc1ccc(NC(=O)CSc2nc(-c3ccco3)nc3cc(=O)[nH]n23)cc1	-14%	-9%
65	CCC(C)(C)C1CCC(NC(=O)Cc2cc(OC)c(OC)c(OC)c2)CC1 (stereo not given)	?	?
66	Cn1c(=O)c2c(ncn2CC(=O)Nc2ccccc2Br)n(C)c1=O	13%	-4%
67	CCCOc1ccc(C2c3c(-c4ccccc4O)n[nH]c3C(=O)N2Cc2cccnc2)cc1 (stereo not given)	-22%	-14%
68	Cc1ccc(-n2ncc(C(=O)N3CCN(c4cccc(C)c4)C(C)C3)c2C2CCN(C(=O)OC(C)(C)C)CC2)cc1 (stereo not given)	-20%	-16%
69	CCN(CC)C(=O)CSc1nc2cc(S(=O)(=O)N(C)C)ccc2o1	17%	4%
70	COc1ccc(OCC(=O)Nc2ccc3nn(-c4ccc(OC)cc4)nc3c2)cc1	2%	-15%
71	Cn1c(=O)c2nc(SCC(=O)N3CCOCC3)n(C)c2n(C)c1=O	-6%	-7%
72	CC(C)N(Cc1ccccc1)C(=O)c1cc2ccc3cccnc3c2[nH]1	25µM*	8.9µM*
73	Cc1ccc2c(c1)-c1c(c(C(=O)NCCc3ccccc3)nn1C)CS2	7%	10%
74	Cc1cc(Br)ccc1NC(=O)COc1cc(=O)n(C)c2ccccc12	-3%	-14%
75	CC(C)(N)Cc1ccccc1Cl	-4%[11.5 µM]	-10%
76	CCC(Oc1ccccc1F)C(=O)Nc1ccccc1Cl (stereo not given)	-4%	-5%
77	CC(=O)N1C=Cc2ccccc2C1CC(=O)Nc1ccc(S(=O)(=O)N2CCC(C)CC2)cc1 (stereo not given)	?	0%
78	COc1ccc(C(=O)N2N=C(c3ccccc3)CC2c2ccc3nccnc3c2)cc1 (stereo not given)	75%[activator]	5%
79	CC(C)NC(=O)CSCc1coc(-c2ccc(Cl)cc2)n1	-8%	?
80	O=C(O)c1ccccc1SC(F)F	8%	4%
81	O=C(CC1CCCCC1)NNC(=O)c1cccc(Cl)c1	93%[activator]	27%
82	COc1cccc(CNC(=O)c2ccc(NC(=O)N3CC(C)Sc4ccccc43)cc2)c1 (stereo not given)	-11%	-1%
83	CCN1C(=O)COc2ccc(NC(=O)c3oc4cc(C)cc(C)c4c3C)cc21	9%	3%
84	O=C(CSc1nnc(-c2ccncc2)n1-c1ccccc1)Nc1ccc(F)cc1	-18%	-6%
85	O=C(Cn1nc(C(=O)O)c2ccccc2c1=O)Nc1ccc(Br)cc1	2%	-10%
86	O=S(=O)(NCCc1ncc2ccccn12)c1ccccc1	86%[activator]	9%
87	Cc1ccc(S(=O)(=O)N2CCCC2)cc1C(=O)Nc1ccc(-c2nc3ccccc3[nH]2)cc1	0%	?
88	Clc1ccccc1-c1nc(Nc2ccccc2)nc2ccc(Br)cc12	1%	6%
89	CONC(=O)c1cccc(C#N)c1	4%	15%
90	COc1ccc(CCNC(=O)C23CC4CC(CC(C4)C2)C3)cc1	-7%	-21%

Fetched by compound from above:
item	mol	2A firefly	StopGo RLuc
18	CCCCCCCCCCS(=O)(=O)N/N=C/c1ccc2c(c1)OCO2	2%	184%[activator]
87	Cc1ccc(S(=O)(=O)N2CCCC2)cc1C(=O)Nc1ccc(-c2nc3ccccc3[nH]2)cc1	0%	?
21	Cc1ccc2[nH]cc(CCNC(=O)c3cccc(Cl)c3)c2c1	-8%	0%
49	CC(Sc1nc2ccc(F)cc2c(=O)[nH]1)C(=O)NC1CC1 (stereo not given)	-3%	-8%

Next entries.
item	mol	2A firefly	StopGo RLuc
91	CCOc1cccc2cc(C(=O)Nc3ccccc3C(C)(C)C)c(=O)oc12	8%	-9%
92	CCN(CC)C(=O)N[C@@H]1C=C2c3cccc4[nH]cc(c34)C[C@@H]2N(C)C1	-10%[11.5 µM]	-2%
93	Cc1cc(C)cc(OCC(=O)Nc2cccc(-c3nc4ccccc4o3)c2)c1	1%	1%
94	CCn1nc(C(=O)OCC(=O)Nc2cc(C(F)(F)F)ccc2Cl)c2ccccc2c1=O	-14%	-14%
95	O=C(Cn1nc(-c2cccs2)c2ccccc2c1=O)NCCc1ccc(Cl)cc1	-17%	-10%
96	Cc1cccc(C(=O)N(Cc2ccco2)C2CC2)c1	4%	13%
97	C/C=C/C=C/C(=O)NC(C)c1cc(F)ccc1F (stereo not given)	0%	-6%
98	COc1cc2c(cc1OC)n(CC(=O)c1cccc(Cl)c1)c(=O)n1nc(CCn3nc(C)cc3C)nc21	-21%	-9%
99	O=C(Nc1ccc2nc(SCC(=O)N3CCCC3)sc2c1)c1cccc(Br)c1	-27%	-26%
100	CC1CCc2nn(CC(=O)Nc3ccccc3Cl)cc2C1 (stereo not given)	129%[activator]	41%[activator]
101	Cc1ccc(Cn2c(CCCOc3ccc(Cl)cc3Cl)n[nH]c2=S)cc1	83%[activator]	15%
102	CN(Cc1ccccc1Br)c1cc(C(=O)N2CCOCC2)c2ccccc2n1	-11%	56%[activator]
103	CN(CC(=O)Nc1ccc2[nH]c(=O)[nH]c2c1)Cc1ccccc1N1CCCCC1	-9%	-11%
104	CCCS(=O)(=O)N1CCN(Cc2cc(=O)n3nc(-c4ccc(Cl)cc4)sc3n2)CC1	21%	-8%
105	CCc1ccc(NC(=O)Nc2ccc3sc(NC(C)=O)nc3c2)cc1	82%[activator]	27%
106	Cc1cccc(-c2nc(S(=O)(=O)c3ccccc3)c(N3CCN(c4ccccc4)CC3)o2)c1	0%	-3%
107	CCN(CC)CCCCC(C(N)=O)c1ccccc1 (stereo not given)	-1%	-2%
108	Cn1ccn(C(F)(F)C(F)F)c1=[Se]	0%	8%
109	Cc1c2cnn(-c3ccccc3)c(=O)c2c(C)n1CC(=O)NCc1ccccc1	-5%	-9%
110	COC(=O)c1ccc(C2CC(=O)Nc3sc(C(=O)Nc4cccc(C(F)(F)F)c4)c(C)c32)cc1 (stereo not given)	-1%	-16%
111	COc1cccc(NC(=O)CSc2nc3ccccc3nc2N2CCOCC2)c1	?	?

Source: PubChem BioAssay (National Center for Advancing Translational Sciences (NCATS))

Random draw from the library; 0.53% or so of the library scored in one or more.
